INS promoter inh = inhibitors of insulin promoter-driven GFP, primary screen, imaging, TRM-6 cells (human fetal islet line), eGFP reporter, cell count | inhibition, % at 2 µM | reporter expression induced with tamoxifen | 130,000 compounds, 0.9% hits | AID 1273, 2008;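 active = inhibition above the mean plus 3 SD, with well images judged a real hit on visual review, cut at about 60% in these data, passing the limit was not always enough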
HSV augment = enhancers of HSV replication in host cells, fold increase, host cell viability; HSV replication augmentation in cells; maximum fold increase; 220,000 compounds, 0.005% hits; AID 1956, 2009;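 active = peak rise of 1.5-fold or more in the series; tested in PC3 cells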;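 note: first round at 10 µM; read as green reporter fluorescence; hits show the peak of a series up to 25 µM; 1 = signal of infected wells without compound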
RGS16-Gao HTS = modulators of RGS16 binding to Galphao, primary screen, biochemical, human proteins, multiplexed bead flow cytometry. Regulator of G-protein signaling 16 (Homo sapiens) + Guanine nucleotide-binding protein …. bead-based flow cytometry RGS16-Galphao binding, fluorescence; actives lie on both sides. binding response (% of control), % at 10 µM. 220,000 compounds, 0.38% hits. AID 1441, 2008;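 active = below 25% or above 175%, edge rows of some plates excepted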;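 note: Galphao activated by GDP with aluminum fluoride before binding; 100% = wells without compound and 0% = beads without RGS; some results beyond the cut were filed as inactive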
Target sequence (O15492 whole entry, looked up): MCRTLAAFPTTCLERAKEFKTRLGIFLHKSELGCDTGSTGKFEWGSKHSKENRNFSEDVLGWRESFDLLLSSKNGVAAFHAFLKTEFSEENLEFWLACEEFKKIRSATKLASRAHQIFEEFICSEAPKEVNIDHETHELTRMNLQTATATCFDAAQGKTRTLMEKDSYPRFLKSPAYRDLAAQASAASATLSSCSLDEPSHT
Target sequence (P09471 whole entry, looked up): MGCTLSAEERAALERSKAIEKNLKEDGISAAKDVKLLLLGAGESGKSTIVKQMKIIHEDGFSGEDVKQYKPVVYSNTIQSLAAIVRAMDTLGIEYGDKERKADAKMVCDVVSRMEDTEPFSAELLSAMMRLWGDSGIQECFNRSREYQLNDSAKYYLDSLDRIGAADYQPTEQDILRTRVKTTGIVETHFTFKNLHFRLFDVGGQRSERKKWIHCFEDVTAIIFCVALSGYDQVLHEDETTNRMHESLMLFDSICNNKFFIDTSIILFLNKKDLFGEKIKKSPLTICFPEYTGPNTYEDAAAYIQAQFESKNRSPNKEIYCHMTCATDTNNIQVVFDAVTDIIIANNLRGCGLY
GALR2 agonist = GALR2 receptor agonists, primary screen, cell-based. GALR2-expressing cells, agonist activation read-out. activation, %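 (tested at 5 µM)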. Galanin receptor type 2 (Homo sapiens), O43603. 140,000 compounds, 0.48% hits;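 active = above mean plus 3 SD of all compounds, about 5% in these data, not always enough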;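 note: 0% = vehicle buffer wells and 100% = reference agonist at full effect; tested in CHO reporter cells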
Target sequence (O43603 whole entry, looked up): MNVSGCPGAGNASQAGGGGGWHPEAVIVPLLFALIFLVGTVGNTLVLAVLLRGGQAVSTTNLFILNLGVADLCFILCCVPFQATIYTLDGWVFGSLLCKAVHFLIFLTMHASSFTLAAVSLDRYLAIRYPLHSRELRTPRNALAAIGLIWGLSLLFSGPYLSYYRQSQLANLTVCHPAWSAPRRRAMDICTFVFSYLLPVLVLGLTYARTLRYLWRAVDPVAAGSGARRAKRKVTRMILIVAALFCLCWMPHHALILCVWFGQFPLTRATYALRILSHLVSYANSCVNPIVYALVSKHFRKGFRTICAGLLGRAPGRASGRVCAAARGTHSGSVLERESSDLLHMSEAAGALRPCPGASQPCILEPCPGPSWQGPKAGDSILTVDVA
PKD1 inh = inhibitors of human PKD1 kinase, biochemical, fluorescence polarization; PKD1 kinase fluorescence polarization assay; Serine/threonine-protein kinase D1 (Homo sapiens), Q15139; inhibition, %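 (about 10 µM by stock and volumes)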; 200,000 compounds, 0.056% hits; AID 797, 2007;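 active = inhibition of 50% or more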;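 note: controls were vehicle for no effect and a reference inhibitor for full effect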
INS promoter inh cell count = second read-out of INS promoter inh, no call of its own (marks repeat the call); normalized cell count, %; measured here: cell count, toxicity; reference of the scale not given here;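 cells exposed to compound for 48 h; stained nuclei by imaging scaled within each plate; lower means fewer cells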
HSV augment primary fold = further read-out of HSV augment, marked with its call; fold increase; compound at 10 µM; measured here: primary screen fold increase 10 uM; tested in PC3 cells;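 GFP signal in the first replicate; 1 = infected wells without compound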
Starred values were filed as active, the others as inactive; i = inactive; nt = no result given.

Below each compound – INS promoter inh	INS promoter inh cell count	HSV augment	HSV augment primary fold	RGS16-Gao HTS	GALR2 agonist	PKD1 inh
#1 CCN(CC)CCN=C1CCCc2ccccc2N1
    -27	95	i	0.85	107	-0.7	4
#2 CCOC(=O)CSc1ccc(S(=O)(=O)N2CCCCC2)cc1[N+](=O)[O-]
    50	114	i	1	99	-2.8	-11
#3 COC(=O)c1ccccc1NC(=O)c1cc(-c2ccc(O)cc2)on1
    nt	nt	i	1	101	-4.3	-8
#4 CCC(C)(C)n1nnnc1CN(Cc1ccco1)Cc1cc2cc3c(cc2[nH]c1=O)OCO3
    -67	82	i	0.91	99	-0.2	-11
#5 O=C1/C(=C/c2ccco2)CCc2ccccc21
    0	82	i	1.2	59	-0.2	-1
#6 O=C1c2ccccc2NC(c2ccco2)N1/N=C/c1ccco1 (configuration not stated)
    nt	nt	i	0.73	100	nt	-14
#7 Cc1cccc(NC(=O)COC(=O)c2cc(C)oc2C)c1
    nt	nt	i	0.96	89	nt	-3
#8 CCCCNC(=O)C1CC(=O)N(C2CCCCC2)C1 (configuration not stated)
    -3	98	i	0.92	104	-0.9	-3
#9 C#CCNC(=O)C1=C[C@@H](c2ccc(Br)cc2)C[C@@H](OCCCCO)O1
    nt	nt	i	0.84	91	nt	6
#10 CC(C)(C)c1ccc(CCC2OCC(C[N+]3(C)CCOCC3)O2)cc1 (configuration not stated)
    nt	nt	i	1	97	nt	nt
#11 Cc1ccccc1NS(=O)(=O)c1cc(C(=O)NCCC2=CCCCC2)ccc1Cl
    nt	nt	i	0.94	109	-1.0	-3
#12 CC1CCN(CCOCCSc2ccc(Cl)cc2)CC1
    nt	nt	i	0.82	104	nt	-8
#13 O=C(CNC(=O)c1ccccc1)N/N=C/c1cn[nH]c1-c1ccccc1
    -12	138	i	0.95	96	0.2	1
#14 Cn1c(=O)oc2cc(S(=O)(=O)N3CCCC(C(=O)N4CCc5ccccc5C4)C3)ccc21 (configuration not stated)
    nt	nt	i	0.97	101	-0.9	-6
#15 COc1ccc2c(CCNC(=O)c3ccc([N+](=O)[O-])cc3)c[nH]c2c1
    45	88	i	1	101	nt	11
#16 O=c1ccc2ccccc2o1
    -68	27	i	0.99	109	0.2	-11
#17 CCOC(=O)c1cc2c(nc1NC(=S)Nc1ccccc1)CC(C)(CC)OC2 (configuration not stated)
    14	120	i	1.4	96	0.3	1
#18 COc1cccc(-n2c(SCC#N)nnc2-c2cnccn2)c1
    nt	nt	i	1.2	95	-1.5	-7
#19 O=C(Nc1ncc(Cc2ccc(C(F)(F)F)cc2)s1)c1ccc(-c2cccc([N+](=O)[O-])c2)o1
    nt	nt	i	1.2	106	-0.1	-8
#20 Nc1nc(-c2nonc2N)no1
    nt	nt	i	0.97	97	nt	-6

Next section; it opens with the four that closed the last part.
Below each compound – INS promoter inh	INS promoter inh cell count	HSV augment	HSV augment primary fold	RGS16-Gao HTS	GALR2 agonist	PKD1 inh
#17 CCOC(=O)c1cc2c(nc1NC(=S)Nc1ccccc1)CC(C)(CC)OC2 (configuration not stated)
    14	120	i	1.4	96	0.3	1
#18 COc1cccc(-n2c(SCC#N)nnc2-c2cnccn2)c1
    nt	nt	i	1.2	95	-1.5	-7
#19 O=C(Nc1ncc(Cc2ccc(C(F)(F)F)cc2)s1)c1ccc(-c2cccc([N+](=O)[O-])c2)o1
    nt	nt	i	1.2	106	-0.1	-8
#20 Nc1nc(-c2nonc2N)no1
    nt	nt	i	0.97	97	nt	-6
#21 CC(Sc1nc2nn(-c3ccccc3)c(=O)c-2c2n1CCCCC2)C(N)=O (configuration not stated)
    -54	64	i	1	97	-2.7	8
#22 Cc1cc2nnc(SCC(=O)NCc3cccs3)n2c(N)n1
    -19	131	i	0.94	101	-4.9	-1
#23 C/C(=N\O)c1ccc2c3ccccc3n(C)c2c1
    nt	nt	i	0.84	149	2.7	0
#24 COC(=O)CCC(=O)Nc1ccccc1C(=O)Nc1ccccc1
    11	76	i	1	103	-0.1	0
#25 CCn1c(SCC(=O)Nc2ccccc2N2CCOCC2)nnc1-c1ccccc1O
    -214	83	i	0.93	102	-0.9	-2
#26 CCOC(=O)c1c(NC(=O)COc2ncnc3sccc23)sc2c1CCC2
    nt	nt	i	0.86	149	-1.3	-8
#27 CCOC(=O)C1C(=O)N(O)CC1c1cccc(Oc2ccccc2)c1 (configuration not stated)
    9	146	i	0.95	107	nt	-4
#28 CCOc1cccc(CNc2ccc(O)cc2)c1OCc1ccc(Cl)cc1
    -58	134	i	0.79	73	-1.2	-3
#29 CCc1cc2c(=O)n3c(nc2s1)-c1[nH]c2ccc(OC)cc2c1CC3
    69	171	i	0.89	101	2.6	-6
#30 Cc1noc(/C=C/c2ccco2)c1S(=O)(=O)N1CCC(C(=O)NC(C)c2ccccc2)CC1 (configuration not stated)
    nt	nt	i	1.1	94	-3.2	-10
#31 COc1ccc(C)cc1NC(=O)c1ccc2c(SCC(=O)O)c3c(nc2c1)CCCC3
    nt	nt	i	0.93	105	nt	nt
#32 CCOc1cc(CN2CCN(C(=O)c3ccco3)CC2)ccc1OC
    -9	78	i	0.96	96	-1.1	-2
#33 Cc1ccc(OCC(=O)NNC(=O)C2CCN(c3ncccn3)CC2)cc1
    7	104	i	1.2	98	-1.5	-14
#34 CCOC(=O)c1c(C)nc(-c2ccccc2)nc1NC(C)=O
    -21	123	i	0.88	100	-2.5	1
#35 Cc1cc(C)nc(Oc2ccc([N+](=O)[O-])cc2)n1
    nt	nt	i	0.91	98	nt	-8
#36 O=S(=O)(O)c1nc2ccccc2n1Cc1ccc(Cl)cc1Cl
    nt	nt	i	0.98	110	-2.4	4
#37 COC(=O)c1cc(NC(=O)CC2C(=O)NCCN2C(=O)c2ccccc2)cc(C(=O)OC)c1 (configuration not stated)
    5	113	i	0.81	100	0.0	-5
#38 c1csc(-c2ccc3ccccc3n2)c1
    nt	nt	nt	nt	107	-0.5	-6
#39 COC(=O)CCSCC(=O)Nc1cc(C)on1
    nt	nt	i	0.72	90	-0.9	-8
#40 CCCC(c1nnnn1Cc1ccc(F)cc1)N1CCN(CC)CC1 (configuration not stated)
    11	143	i	1	102	nt	1
#41 Cc1cccc(-n2nnnc2SCC(=O)c2cc(C)n(CC3CCCO3)c2C)c1 (configuration not stated)
    25	103	i	0.86	101	-0.2	0
#42 CC(=O)Nc1ccc(S(=O)(=O)NCc2cn3ccsc3n2)cc1
    -21	51	i	0.98	90	0.3	9
#43 CC(=O)O[C@@H]1[C@H]2[C@@H](C[C@@H](C)[C@@H]3CCC(=O)[C@@]13C)OC(=O)[C@@H]2C
    nt	nt	i	0.99	101	nt	nt
#44 O=C(COC(=O)CCc1c[nH]c2ccccc12)Nc1cc([N+](=O)[O-])ccc1Cl
    nt	nt	i	0.95	131	-1.6	-2
#45 O=c1[nH]c(NCc2ccccc2)nc2c1CCC2
    nt	nt	i	0.83	100	-1.2	11
#46 Cc1ccc(S(=O)(=O)C(CCC(=O)N2CCOCC2)S(=O)(=O)c2ccc(C)cc2)cc1
    -18	112	i	0.76	98	0.2	4
#47 Cc1ccc(NCN2C(=O)c3ccccc3C2=O)c(C)c1
    -23	135	i	1	97	-2.6	-9
#48 Nc1[nH]ncc1C(=O)Nc1cccc(C(F)(F)F)c1
    -21	131	i	1	84	-0.3	-14
#49 CCOC(=O)c1c(NC(=O)CSc2nnc(C)c(=O)[nH]2)sc(C)c1-c1ccc(C)cc1
    nt	nt	i	0.76	107	nt	nt
#50 O=C(NNC(=O)c1cc2cc3ccccc3nc2s1)c1cccc(C(F)(F)F)c1
    16	136	nt	nt	97	0.3	-17
#51 COc1ccccc1N(CC(=O)NCCSc1ccccc1)S(C)(=O)=O
    -29	110	i	1.2	98	0.8	-3
#52 CC(C)=NOC(=O)c1c(C)noc1-c1snnc1C
    nt	nt	i	0.81	99	nt	nt
#53 Cc1ccc(S(=O)(=O)NC(CC(=O)n2nc(C)cc2C)c2ccccc2)cc1 (configuration not stated)
    -77	70	i	0.95	102	-2.4	3
#54 COc1ccc(C=O)cc1Cn1cnc2c(cnn2C)c1=O
    36	102	i	0.91	100	nt	-2
#55 CCCn1nnnc1-c1ccc(Cl)cc1
    -4	141	i	1.1	109	-1.3	-7
#56 COc1cccc(C(=O)SC2=NCCS2)c1
    -45	209	i	0.93	107	-2.3	-10
#57 Cc1ccc(CNC(=O)CC2Sc3ccccc3NC2=O)cc1 (configuration not stated)
    nt	nt	i	1	83	nt	-3
#58 CCNC(=O)C(=O)NCc1ccncc1
    17	100	i	0.98	110	nt	-2
#59 CC(=O)NNC(=S)NC(=O)c1cccc([N+](=O)[O-])c1
    -4	70	i	0.95	118	-0.7	0
#60 N#CCSCC(=O)Nc1ccc(Br)cc1
    22	145	i	1	100	-0.6	0

An excerpt of these results, with tabs.
nr	SMILES	INS promoter inh	INS promoter inh cell count	HSV augment	HSV augment primary fold	RGS16-Gao HTS	GALR2 agonist	PKD1 inh
22	Cc1cc2nnc(SCC(=O)NCc3cccs3)n2c(N)n1	-19	131	i	0.94	101	-4.9	-1
23	C/C(=N\O)c1ccc2c3ccccc3n(C)c2c1	nt	nt	i	0.84	149	2.7	0

Continued:
Below each compound – INS promoter inh	INS promoter inh cell count	HSV augment	HSV augment primary fold	RGS16-Gao HTS	GALR2 agonist	PKD1 inh
#61 CC(=O)/C(N=Nc1ccc(OC(F)(F)F)cc1)=C(\C)O
    nt	nt	i	0.99	103	nt	nt
#62 O=C(COC(=O)c1cc([N+](=O)[O-])ccc1NCCO)Nc1ccc2c(c1)OCO2
    nt	nt	i	0.9	102	nt	-2
#63 Cc1ccc(OCC(=O)Nc2ccc(O)c(C(=O)O)c2)cc1C
    40	65	i	1.1	93	1.6	-5
#64 CCCCNC(=O)c1ccc(CNc2c(N3CCC(C(=O)OCC)CC3)c(=O)c2=O)cc1
    5	103	i	0.98	29	-2.0	3
#65 CCOc1ccccc1NC(=O)C1CCN(C(=O)c2cccs2)CC1
    nt	nt	i	1.1	104	nt	2
#66 Cc1cccc(OCC(O)CN2CCN(C3CCCCC3)CC2)c1 (configuration not stated)
    -63	122	i	0.91	109	-0.1	-11
#67 O=C(CN(C(=O)CSc1nc2ccccc2o1)c1ccccc1)NC1CCCCC1
    43	94	i	0.89	97	-3.0	-22
#68 COc1ccc(C(C)C)cc1S(=O)(=O)Nc1ccncc1
    -11	97	i	1.1	107	nt	-10
#69 COc1ccc(N/C=C(\C(C)=O)c2ccc(OC)c(OC)c2)cc1OC
    nt	nt	i	0.97	108	nt	0
#70 COc1ccc(Cl)cc1NC(=O)CN(C)C(=O)CNC(=O)C12CC3CC(CC(C3)C1)C2
    54	72	i	0.79	96	-3.1	10
#71 CC(C)(C)c1nc(CN2CCOCC2)cc(CN2CCOCC2)c1O
    nt	nt	i	0.98	123	-2.9	0
#72 COc1ccc(C2=NN(C(=O)c3ccccc3)C(c3cccc([N+](=O)[O-])c3)C2)cc1 (configuration not stated)
    nt	nt	i	1	100	nt	nt
#73 Cc1ccc(NC(=O)c2nc[nH]c2C(=O)N[C@@H](C)c2ccccc2)cc1
    nt	nt	i	0.79	100	nt	-2
#74 CCOCC(=O)Nc1c(C(=O)Nc2ccccc2OC)oc2ccccc12
    30	158	i	0.88	99	-1.5	-7
#75 N#C/C(=C1/CCCCCN1)c1nc2ccccc2[nH]1
    nt	nt	i	0.97	100	-0.2	-5
#76 BrC(=C\c1ccccc1)/C=N/N1CCN(c2ccccc2)CC1
    nt	nt	i	0.95	101	nt	4
